GLA inh pH 4.5: qHTS Assay for Inhibitors of Human alpha-Galactosidase at pH 4.5; Alpha-galactosidase A (Homo sapiens), P06280; purified enzyme, 4-MU-alpha-Gal fluorescence, pH 4.5; activity change, negative = inhibition, % at 105 µM; 230,000 tested, under 10 active; AID 1467, 2008; inconclusive = small, poorly fitted or top-dose-only inhibition, or a rising curve; inactive = flat fitted curve, though single readings scatter; no compound was filed as active;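 also: 0% = full activity with enzyme and -100% = basal without enzyme; dose as in the result columns while the protocol names 77 µM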
Rango-impB inh: qHTS Assay for Inhibitors of Rango (Ran-regulated importin-beta cargo) - Importin beta complex formation; Importin subunit beta-1 (Homo sapiens), Q14974; Rango CFP/YFP FRET sensor + importin beta, 45 min; Potency, µM (titrated, usually from 92.2 µM), for inactives: at the highest dose inhibition of complex formation; actives 0.031% (n = 340,000); AID 540263, 2011; active = rising FRET ratio curve, often small or poorly fitted; inconclusive = mostly compound fluorescence or quenching in the first reads; inactive = flat curves in all reads;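 also: potency is read from the fitted curve at half-maximal effect; 0% = DMSO wells and 100% = buffer wells lacking importin beta; nearly all actives have a fitted effect of over 15% in size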
Target sequence (Q14974 whole entry, looked up): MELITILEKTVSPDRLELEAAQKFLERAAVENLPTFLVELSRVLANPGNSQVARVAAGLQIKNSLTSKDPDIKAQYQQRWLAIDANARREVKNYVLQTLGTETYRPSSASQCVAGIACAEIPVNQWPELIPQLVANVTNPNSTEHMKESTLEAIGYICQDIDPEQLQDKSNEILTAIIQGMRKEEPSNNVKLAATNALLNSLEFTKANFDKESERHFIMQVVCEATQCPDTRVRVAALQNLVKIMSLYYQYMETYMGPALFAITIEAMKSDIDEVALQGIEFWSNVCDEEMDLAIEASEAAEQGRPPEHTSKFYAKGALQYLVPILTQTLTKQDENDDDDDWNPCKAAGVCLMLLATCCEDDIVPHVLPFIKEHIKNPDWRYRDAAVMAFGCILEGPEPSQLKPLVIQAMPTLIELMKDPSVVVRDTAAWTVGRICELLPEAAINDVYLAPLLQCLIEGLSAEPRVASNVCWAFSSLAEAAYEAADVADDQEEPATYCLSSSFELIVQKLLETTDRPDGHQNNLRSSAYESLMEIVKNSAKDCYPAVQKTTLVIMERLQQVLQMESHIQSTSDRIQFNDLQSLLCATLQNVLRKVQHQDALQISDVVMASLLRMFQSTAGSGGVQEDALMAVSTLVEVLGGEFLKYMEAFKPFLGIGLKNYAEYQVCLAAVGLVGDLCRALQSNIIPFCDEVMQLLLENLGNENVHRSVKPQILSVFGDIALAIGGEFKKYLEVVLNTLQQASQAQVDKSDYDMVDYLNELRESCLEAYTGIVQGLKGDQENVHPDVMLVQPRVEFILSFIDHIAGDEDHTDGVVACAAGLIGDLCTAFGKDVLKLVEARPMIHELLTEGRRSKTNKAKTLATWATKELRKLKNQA
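FRET biosensor Rango (snurportin 1 IBB between N-terminal EYFP and C-terminal Cerulean), 50 nM in PBS/1 mM DTT/0.02% Tween-20/0.1% BSA, preincubated 5 min RT with compound; 0.125 microM importin beta added, 45 min RT, CFP/YFP FRET ratio read.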
miR-21 FLuc: qHTS Assay for Modulators of miRNAs and/orActivators of miR-21 | HeLa miR-21 FLuc reporter, luciferase, 48 h | Potency, µM (highest dose often 38.3 µM), for inactives: top-dose reporter change, positive = more light | 340,000 tested, under 10 active | AID 2288, 2010; active = well fitted rising curve with a large enough effect; inconclusive = small, poorly fitted or top-dose-only effect; inactive = no such curve, though single readings can be large or run the other way;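 also: % of control where 0% means no effect; miR-21 action dims this reporter so a rising signal means less miR-21 action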
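HeLa cells endogenously expressing miR-21, stably carrying CMV-driven firefly luciferase with a downstream miR-21 binding site, 2000 cells/well. Titrations up to approximately 40 uM, 48 hours; luciferase luminescence read.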
Rango dissoc inh: qHTS Assay for Inhibitors of RanGTP induced Rango (Ran-regulated importin-beta cargo) - Importin beta complex dissociation; Snurportin-1 (Homo sapiens) + GTP-binding nuclear protein Ran (Homo sapiens) + Importin …; Biochemical FRET Rango-importin beta, RanGTP-induced dissociation; Potency, µM (highest dose often 46.1 µM), for the others: at the highest dose activity change, negative = inhibition; actives 0.071% (n = 340,000); AID 540253, 2011; active means falling FRET ratio curve, often poorly fitted, with flat reads before Ran was added; inconclusive means other falling curves, or compound fluorescence or quenching; inactive means flat or rising ratio curve;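 also: potency is read from the fitted curve at half-maximal effect; % of control where 0% means no effect; nearly all actives have a fitted effect of over 45% in size; -100% = wells without RanGTP and RCC1; the record marks most hits as doubtful in a second field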
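Quantitative HTS using a FRET biosensor: 0.1 uM Rango, 0.25 uM importin beta, 0.6 uM Ran, 2 mM GTP, 0.2 uM RCC1 final, PBS with DTT, Tween-20 and BSA. Post-read taken 45 min after Ran addition.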
The depositor's hits bear a star; ? = inconclusive; / = no result given; & = joins results of further samples. Only part of the results is shown (hit frequency here may not be typical).

Assay codes: A = GLA inh pH 4.5; B = Rango-impB inh; C = miR-21 FLuc; D = Rango dissoc inh
[1] O=C(CN(c1ccc(Cl)cc1)S(=O)(=O)c1ccccc1)N/N=C/c1ccco1
  A: 0.6	B: -2.8%	C: -9.4%	D: 15.4%
[2] O=C(NCCOc1ccccc1)c1ccc2c(c1)S(=O)(=O)c1cc(Cl)ccc1C2=O
  A: /	B: 0.0%	C: /	D: -10.0%
[3] CCOc1ccc(-n2ccnc2SCC(=O)Nc2nnc(C)s2)cc1
  A: -1.6	B: 6.4%	C: 0.0%	D: -5.6%
[4] CCCCc1nnc(NC(=O)c2ccc(OCc3c(C)noc3C)cc2)s1
  A: /	B: -1.9%	C: /	D: 15.1%
[5] CNC(=S)Nc1ccc(-c2nc3ccc(C)cc3s2)cc1
  A: -4.7	B: ?	C: -33.0%	D: -1.5%
[6] COc1ccc(-c2nc(-c3ccccc3OC)no2)cc1OC
  A: -4.8	B: -1.6%	C: -59.0%	D: -1.7%
[7] CN(C(=O)Cn1nc(C(=O)O)c2ccccc2c1=O)C1CCCCC1
  A: /	B: -0.3%	C: /	D: -6.5%
[8] Cc1ccc(N(CC(=O)N2CCc3ccccc3C2)S(C)(=O)=O)cc1
  A: /	B: -0.3%	C: -7.1%	D: 16.7%
[9] NS(=O)(=O)c1ccc(NC(=O)N[C@@H](Cc2ccccc2)C(=O)O)cc1
  A: 8.1	B: 0.6%	C: -4.0%	D: -2.5%
[10] CC(=O)C[C@@H](O)CC(=O)[C@H]1OC(=O)[C@H](C)CCCCc2ccccc21
  A: /	B: -2.2%	C: /	D: 10.6%
[11] CCOc1ccccc1CNC(=O)c1nn(CC)cc1[N+](=O)[O-]
  A: -1.2	B: 0.4%	C: 3.5%	D: -17.5%
[12] COC(=O)Nc1nc(-c2ccccc2)c(C(=O)c2ccc(Cl)cc2)s1
  A: 0.3	B: -0.5%	C: 20.3%	D: 13.3%
[13] COc1cc(N)c(Cl)cc1C(=O)OCC(=O)N1CCCCCC1
  A: /	B: -3.8%	C: /	D: -4.5%
[14] O=C(Oc1ccc(N2C(=O)C3C4CCC(C4)C3C2=O)cc1)c1ccco1 (stereo not given)
  A: /	B: 0.2%	C: -6.2%	D: -6.3%
[15] OCC1CCCN(C(=S)Nc2ccc(OC(F)F)cc2)C1 (stereo not given)
  A: -1.1	B: 0.8%	C: -30.3%	D: 6.7%
[16] Cc1nc2ccc(Cl)cc2c(-c2ccccc2)c1CC(=O)O
  A: 3.7	B: -2.9%	C: -7.5%	D: -7.6%
[17] CC(=O)NCCNC(=O)C1CCCCN1S(=O)(=O)c1ccccc1 (stereo not given)
  A: 1.1	B: 0.6%	C: -0.1%	D: 0.3%
[18] O=C1OCCN1C(=O)[C@H]1[C@H](c2ccc(Cl)cc2)C(c2ccccc2)=NN1c1ccc(Br)cc1
  A: 27.5	B: ?	C: /	D: ?
[19] CNC(=O)C1Cc2ccccc2CN1S(=O)(=O)c1ccc(OC)c(OC)c1 (stereo not given)
  A: /	B: -0.9%	C: -3.0%	D: -1.7%
[20] CCOC(=O)N1CCN(S(=O)(=O)c2cn(C)c(=O)n(C)c2=O)CC1
  A: /	B: 4.6%	C: -0.7%	D: 5.8%
[21] C[C@@H]1CN([C@@H](C)CO)C(=O)Cc2cc(NC(=O)C3CCCCC3)ccc2O[C@H]1CN(C)S(=O)(=O)c1ccccc1
  A: /	B: 2.8%	C: /	D: 0.3%
[22] O=C(COC(=O)CCN=C1NS(=O)(=O)c2ccccc21)NC1CCCCCCC1
  A: 6.2	B: -4.2%	C: -1.2%	D: -6.3%
[23] CCOC(=O)c1ccc(S(=O)(=O)N2CCN(C(C)=O)CC2)cc1
  A: -2.2	B: -0.2%	C: -2.0%	D: -4.8%
[24] O=C(CCS(=O)(=O)c1ccccc1)N(CCCN1CCOCC1)c1nc2c(F)cccc2s1
  A: /	B: 5.3%	C: /	D: 2.2%
[25] COC(=O)c1ccc(C23CC4(C2)[C@H](CN(Cc2ccc(C(F)(F)F)cc2)[C@@H]4c2ccccc2)C3c2ccccc2)cc1 (stereo not given in full)
  A: 0.8&1.9	B: -0.1%	C: 1.5%	D: 6.4%
[26] COc1ccc2[nH]c(=O)c(CN(CC3CCCO3)C(=O)Nc3ccc(F)cc3)cc2c1 (stereo not given)
  A: 1.3	B: -1.5%	C: 1.8%	D: 3.1%
[27] CC(/C=N/NC(=O)c1cccs1)=C\c1ccccc1
  A: -14.0	B: 0.5%	C: -25.4%	D: -10.7%
[28] CCCn1c(=O)c(C(=O)NCc2ccc3c(c2)OCO3)c(O)c2ccccc21
  A: /	B: -0.6%	C: -5.3%	D: -10.0%
[29] O=C(Cn1nc(-c2ccccc2)ccc1=O)NCc1ccc2c(c1)OCO2
  A: -2.0	B: -3.6%	C: 0.2%	D: 0.9%
[30] c1csc(CNc2ncnc3ccc(-c4ccc5c(c4)OCO5)cc23)c1
  A: -16.7	B: -1.1%	C: /	D: 0.8%
[31] CC(C)Oc1ccc(/C=N/NC(=O)C2CCCN2S(=O)(=O)c2ccc(Cl)cc2)cc1 (stereo not given)
  A: -10.0	B: ?	C: -4.4%	D: ?
[32] COc1ccccc1C1CCN(Cc2c(C)[nH]c3ccccc23)CC1
  A: -22.0	B: 3.3%	C: 11.8%	D: ?
[33] Nn1c(Cc2cccc3ccccc23)nnc1SCCOc1ccc(F)cc1
  A: 5.8	B: -1.5%	C: -3.7%	D: 9.5%
[34] COc1ccc(S(=O)(=O)N(C)CC(=O)Nc2ccc3c(c2)OCO3)cc1
  A: 0.1	B: 3.8%	C: 0.8%	D: -5.1%
[35] COc1ccccc1C(=O)NCCC(=O)NCC1COc2ccccc2O1 (stereo not given)
  A: /	B: -1.1%	C: /	D: 3.5%
[36] Cc1nnc(SCC(=O)NC(=O)NCCC(C)C)s1
  A: -0.8	B: -1.2%	C: 0.4%	D: -6.2%
[37] O=c1[nH]c2ccccc2nc1Cc1ccccc1
  A: 2.0	B: 0.9%	C: -6.7%	D: -11.3%
[38] CC(=O)c1ccc(NC(=O)C(C)n2c3ccccc3c3nc(=O)cc(C)n32)cc1 (stereo not given)
  A: 7.4	B: -0.3%	C: 2.1%	D: -0.3%
[39] Cc1c(C(=O)N2CCCCCC2)c(S(=O)(=O)Nc2ccccc2F)c(C)n1C
  A: /	B: -0.6%	C: -0.6%	D: 1.4%
[40] CC1CCCCN1C(=O)C(=O)c1cn(CC(=O)N2CCCC2)c2ccccc12 (stereo not given)
  A: /	B: ?	C: 0.2%	D: -11.0%
[41] CCN(CC)C(=O)CSc1nnc(C2CCCCC2)o1
  A: 3.0	B: 0.1%	C: -18.5%	D: -3.0%
[42] Brc1ccc(-c2cn3ccccc3n2)cc1
  A: 3.2	B: 1.3%	C: -24.1%	D: 15.4%
[43] COCC1CCN(C(=O)C2CCC(=O)N(CCc3ccc(Cl)cc3)C2)CC1 (stereo not given)
  A: /	B: -1.1%	C: 0.4%	D: 11.0%
[44] O=C1Nc2cc(C(F)(F)F)ccc2N2CCCCC12 (stereo not given)
  A: /	B: -0.1%	C: -0.3%	D: -6.9%
[45] COc1cc(/C=N/NC(=O)CCN2CCN(c3ccccc3)CC2)cc(OC)c1OC
  A: 4.0	B: 1.8%	C: 0.6%	D: 33.8%
[46] O=C(NCc1cccnc1)c1cccc2c1C(=O)N(Cc1cccnc1)C2
  A: -0.6	B: -4.1%	C: -3.3%	D: 3.4%
[47] O=C1COc2ccc(C(=O)COC(=O)c3ccccc3Cl)cc2N1
  A: /	B: 0.4%	C: /	D: -6.7%
[48] Cc1ccc(/C=C/C(=O)OCC(=O)Nc2ccccc2Sc2ccccc2)cc1
  A: 4.2	B: 0.2%	C: -0.3%	D: 4.8%
[49] Cc1ccc(NC(=S)Nc2ccc(Cl)c(Cl)c2)c(OC(F)F)c1
  A: 6.8	B: -2.1%	C: 26.2%	D: -3.0%
[50] Cc1ccc(NC(=O)Nc2cnccn2)cc1
  A: /	B: -0.4%	C: -51.6%	D: -6.3%

Reformatted as labelled records: entries from further up
47	O=C1COc2ccc(C(=O)COC(=O)c3ccccc3Cl)cc2N1
  GLA inh pH 4.5: /
  Rango-impB inh: 0.4%
  miR-21 FLuc: /
  Rango dissoc inh: -6.7%

44	O=C1Nc2cc(C(F)(F)F)ccc2N2CCCCC12 (stereo not given)
  GLA inh pH 4.5: /
  Rango-impB inh: -0.1%
  miR-21 FLuc: -0.3%
  Rango dissoc inh: -6.9%

41	CCN(CC)C(=O)CSc1nnc(C2CCCCC2)o1
  GLA inh pH 4.5: 3.0
  Rango-impB inh: 0.1%
  miR-21 FLuc: -18.5%
  Rango dissoc inh: -3.0%

50	Cc1ccc(NC(=O)Nc2cnccn2)cc1
  GLA inh pH 4.5: /
  Rango-impB inh: -0.4%
  miR-21 FLuc: -51.6%
  Rango dissoc inh: -6.3%

(continued)
Assay codes: A = GLA inh pH 4.5; B = Rango-impB inh; C = miR-21 FLuc; D = Rango dissoc inh
[51] COc1ccc(CN(C)C(=O)[C@H](Cc2ccccc2)NC(=O)c2ccco2)c(OC)c1
  A: /	B: -2.6%	C: /	D: 10.7%
[52] CC(C)C(=O)NC(=S)Nc1nnn(C)n1
  A: 1.0	B: -7.3%	C: -3.3%	D: -11.2%
[53] COc1cccc(-c2cc(C(F)(F)F)n3nc(C(=O)N4CCCCC4c4cccnc4)cc3n2)c1 (stereo not given)
  A: -6.1	B: -0.3%	C: -14.0%	D: -0.8%
[54] CC1=Nc2nc(N3CCCCC3)c(C#N)c3c4c(nc(c23)N1)N(c1ccc(C(C)C)cc1)C(=O)C4
  A: -4.3	B: 1.4%	C: -3.4%	D: 1.3%
[55] CN1CCN(S(=O)(=O)c2ccc(NCc3ccc4c(c3)OCO4)nc2)CC1
  A: -2.0	B: -0.7%	C: -1.5%	D: -3.9%
[56] Cn1ccnc1CN1CCCCC1C(=O)Nc1ccc(Oc2cccnc2)cc1 (stereo not given)
  A: /	B: 0.1%	C: 13.4%	D: -3.5%
[57] O=C(Nc1ccc(Cl)cc1)[C@@H]1[C@@H]2C(=O)N(c3ccc(Cl)cc3)C(=O)[C@@H]2[C@H]2C=CC=NN21
  A: 7.4	B: ?	C: -3.9%	D: ?
[58] O=C(c1ccc2nccnc2c1)N1CCN(c2ccccc2)CC1
  A: /	B: -0.1%	C: -8.8%	D: 16.7%
[59] O=C1CC(N2CCN(S(=O)(=O)c3ccc([N+](=O)[O-])cc3)CC2)C(=O)N1c1ccccc1F (stereo not given)
  A: /	B: 1.3%	C: /	D: 12.8%
[60] CC(C)c1cc(-c2cc(C(=O)NCc3ccccc3)on2)nc(NC2CCCC2)n1
  A: -3.7	B: -0.3%	C: 16.2%	D: 8.9%
[61] C(=N\Nc1nc2ccccc2[nH]1)/c1ccccn1
  A: -8.3	B: 0.3%	C: ?	D: -2.7%
[62] COc1cc(S(=O)(=O)NC2CCCC2)c(OC)cc1C
  A: /	B: -1.7%	C: 2.8%	D: 1.7%
[63] O=C(NC(Cc1ccccc1)C(=O)O)/C(=C\c1ccc(Cl)cc1)NC(=O)c1ccco1 (stereo not given)
  A: /	B: ?	C: 0.3%	D: ?
[64] COC(=O)C1=C(C(=O)OC)[C@@H]2N(C)c3ccc(OC)cc3[C@@]23C[C@@H](C(=O)OC)N(C(=O)c2cc(C)oc2C)C3=N1
  A: 7.9	B: 0.9%	C: /	D: 18.2%
[65] Cc1c(NC(=O)/C(C#N)=C/c2cccs2)c(=O)n(-c2ccccc2)n1C
  A: -15.0	B: -0.2%	C: -3.0%	D: -2.8%
[66] Cc1ccc(S(=O)(=O)CCC(=O)OCC(=O)NC2CCS(=O)(=O)C2)cc1 (stereo not given)
  A: /	B: 3.7%	C: /	D: -13.2%
[67] Cc1c(Cl)cccc1NC(=O)c1cc(-c2ccccc2O)n[nH]1
  A: -14.9	B: 2.0%	C: -1.1%	D: 4.4%
[68] CCOc1ccc(OCC)c(NC(=O)C(NS(=O)(=O)c2ccc3c(c2)oc(=O)n3C)C(C)C)c1 (stereo not given)
  A: -0.6	B: 0.0%	C: -6.4%	D: 0.7%
